# From PubChem
# OX1R antagonist = antagonists of human orexin 1 receptor; CHO/OX1R cells, Fluo-8 calcium fluorescence, orexin A; inhibition, % at 5 µM; 330,000 compounds, 0.43% hits;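 active means inhibition above its plate's threshold, mean inhibition of all tested compounds on the plate plus 3 SD, cut at about 37% in these data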;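 further: 0% = orexin A challenge wells and 100% = SB-334867-A antagonist wells; not every result past the cut was called active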
# Target sequence (O43613 whole entry, looked up): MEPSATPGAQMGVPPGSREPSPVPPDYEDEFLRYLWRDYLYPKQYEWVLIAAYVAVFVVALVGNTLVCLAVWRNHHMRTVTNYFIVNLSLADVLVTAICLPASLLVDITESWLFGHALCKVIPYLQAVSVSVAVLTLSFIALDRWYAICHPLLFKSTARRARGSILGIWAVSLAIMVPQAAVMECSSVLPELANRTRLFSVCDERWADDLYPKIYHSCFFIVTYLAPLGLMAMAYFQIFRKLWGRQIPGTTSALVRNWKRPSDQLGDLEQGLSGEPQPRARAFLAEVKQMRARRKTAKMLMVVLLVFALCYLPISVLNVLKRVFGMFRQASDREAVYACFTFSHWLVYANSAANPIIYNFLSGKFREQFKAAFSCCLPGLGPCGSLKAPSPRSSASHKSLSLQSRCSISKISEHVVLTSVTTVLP
# * hit, by the source's call. This is a subset, and most or all hits are left out here.
Compound	OX1R antagonist
Cc1nc(C)n(CC(O)COc2ccc3ccccc3c2)n1 (centres undefined)	2
COc1nnc(OC)c2ccccc12	-8
COc1ccc(C(C)=O)cc1COc1ccc(F)cc1	-25
CC12CN3CCN(CC(C3)C1(O)CN1CCOCC1)C2 (centres undefined)	-9
O=C(O)C(Cc1c[nH]c2ccccc12)N1C(=O)C2C3c4ccccc4C(c4ccccc43)[C@@H]2C1=O (some centres undefined)	2
Cc1ccccc1CNC(=O)c1ccccc1	2
Cc1nc2ccccc2nc(C)c1=NOCc1ccc(Cl)cc1Cl	-7
CCOC(=O)Cn1cnc2c(nnn2-c2cccc(OC)c2)c1=O	-3
Oc1ccc(-n2cccc2/C=N/n2cnnc2)cc1	-16
CNC(=O)NNC(=O)c1onc(-c2c(Cl)cccc2Cl)c1C(=O)OC	-9
C/C(=N\NC(=O)c1cccc(S(=O)(=O)N2CCCC2)c1)c1ccc(F)cc1	-26
Cc1cc(C)cc(C(=O)n2cnnc2N)c1	-9
COc1ccc(-c2cc(C(F)(F)F)n3ncc(C(=O)N4CCc5ccccc5C4)c3n2)cc1	-36
COc1ccccc1-c1nc(C(N)=O)c2[nH]c(=O)n(-c3cccc(C)c3)c2n1	-22
CCOC(=O)c1c(-c2ccc(F)cc2)csc1NC(=O)CN1C(=O)NC2(CCCCC2C)C1=O (centres undefined)	-16
CN(C(=O)CSc1nnc(Cc2ccccc2F)n1N)C1CCS(=O)(=O)C1 (centres undefined)	-4
Cn1c(=O)c(-c2ccccc2[N+](=O)[O-])c(Cl)c2ccccc21	-11
Brc1cccc(CNCC2CCCO2)c1 (centres undefined)	-26
Cc1ccc(NC(=O)CCC(=O)NNC(=O)c2ccco2)cc1C	7
CCOc1ccc(Br)cc1S(=O)(=O)Nc1cccc(S(=O)(=O)N(CC)CC)c1	-21
CC(C)Cc1[nH]c(=O)c(C#N)c2c1COC(C)(C)C2	-4
NC(=O)N/N=C/c1coc2ccc3ccccc3c2c1=O	-22
Cc1ccc(C(CNS(=O)(=O)c2ccc(F)cc2)N2CCN(C)CC2)cc1 (centres undefined)	-21
CCCCNc1nc2c(-c3ccccc3)nnn2c2ccccc12	-14
C[C@@H]1CCC[C@]2(O[C@H](CCO)C[C@H](O)[C@H]2O)O1	10

# The list continues.
Compound	OX1R antagonist
CCn1c(=O)[nH]c2cc(C(=O)Nc3cc(C)cc(C)c3)ccc2c1=O	-6
CCSc1ccccc1C(=O)N1CCCC1	-13
CC(=O)N(c1nc(/C=C\C(=O)O)cs1)c1ccccc1F	-8
CCC(=O)Nc1ccc(Cl)c(NC(=S)NC(=O)c2ccco2)c1	-5
Cc1ccc(NS(=O)(=O)c2cccc3cccnc23)c(Br)c1	-14
COC(=O)c1[nH]c2ccccc2c1NC(=O)Oc1ccccc1	-7
Cc1nn(CC(=O)NCCc2ccccc2)c(=O)c2cccn12	-11
Cc1ccc(S(=O)(=O)N2CCC(C(=O)N[C@H](C(=O)NCC3CCCO3)C(C)C)CC2)cc1 (some centres undefined)	-33
COc1ccccc1/C=C/C(=O)NCC(=O)N/N=C(/C)c1ccc(Cl)cc1	-14
CCn1c(SCC(=O)N/N=C/c2ccc(C)o2)nnc1-c1ccc(C(C)(C)C)cc1	6
Cc1ccc(C2=[N+]([O-])C3(CCCCC3=O)N(O)C2(C)C)cc1 (centres undefined)	-19
O=C(NCCc1ccccc1)C(=O)Nc1ccc2c(c1)OCCO2	-12
COc1cc(/C=C/C(=O)OCC(=O)NCc2ccco2)ccc1OCC#N	-2
COc1cccc(NC(=O)N2CCN(c3nnnn3-c3ccccc3)CC2)c1	-12
COC1CCCCC1Nc1cc(C)cc(C)c1 (centres undefined)	-3
Cc1cccc(C)c1NC(=O)N1C2CCCC1CC(NC(=O)C(C)(C)C)C2 (centres undefined)	-25
CCn1ncc(C2=NOC(C(=O)NCc3ccc(OC)cc3)C2)c1C (centres undefined)	-15
NS(=O)(=O)c1ccc(NC(=O)N2c3ccccc3Sc3ccccc32)cc1	6
CCCCNC(=O)C1c2ccccc2C(=O)N(c2ccc(OC)cc2)C1c1ccc(OC)cc1 (centres undefined)	-29
Cc1cc(C)cc(OCC(O)CN2C(=O)NC(C)(C)C2=O)c1 (centres undefined)	-5
Cc1cc(NC(=O)COC(=O)C2CC(=O)N(c3ccccc3)C2)no1 (centres undefined)	-14
COc1ccc(NC(=O)c2ccc(S(=O)(=O)N(C)c3ccccc3)cc2)cn1	-1
COc1ccc(C(c2nnnn2Cc2cccs2)N2CCN(c3ccccc3)CC2)cc1OC (centres undefined)	0
O=C1NC(CCc2ccccc2)C(=O)N1Cc1ccc(Br)cc1 (centres undefined)	-27
COc1cc(/C=c2/sc3nc(-c4ccccc4)c(-c4ccccc4)n3c2=O)cc(OC)c1OC	-21

# Next compounds:
Compound	OX1R antagonist
CCCOc1cccc(C(=O)NC(=S)Nc2cccc(NC(=O)c3ccccc3Cl)c2)c1	-8
COc1ccc(CCN(C)CCCN2CC(c3ccccc3)CC2=O)cc1OC (centres undefined)	-37
CC(C)c1cc(Nc2cccc(O)c2)cc(C(C)C)c1O	0
NCC(=O)NNC(=O)OCC1c2ccccc2-c2ccccc21	-15
Cc1c(C(=O)N2CCN(c3ccccn3)CC2)sc2ncnc(N3CCOCC3)c12	-16
O=C(Nc1nccs1)c1ccc(-c2ccc([N+](=O)[O-])cc2)o1	-13
CC(C)(C)OC(=O)N1CCC(C(=O)NNC(=O)c2ccc(Cl)cc2Cl)CC1	-11
CCC(C)N(C)Cc1cccc(C2(O)CCN(S(=O)(=O)c3ccc(F)c(C)c3)CC2)c1 (centres undefined)	-21
COCCCNc1nnc(Cc2ccc(Cl)cc2)c(=O)[nH]1	5
Cc1cc(C)nc(SCC(=O)N/N=C/c2cccn2-c2ccc(O)cc2)n1	-19
CC(C)Cc1csc(NC(=O)C(C)C)c1C(=O)O	0
COCCn1nc2cc(C(=O)NCc3cc(C(F)(F)F)cc(C(F)(F)F)c3)ccc2c1OC	-15
O=C1CC2(CCN(C(=O)COc3ccc(F)cc3)CC2)Oc2ccccc21	-12
COc1ccc(C(=O)NCc2cn3ccsc3n2)cc1OC	-20
C=CCSc1nc2nc(C)cc(C)n2n1	-7
Cc1nn(-c2ccccc2)c(N)c1C(c1ccccc1)c1c(C)nn(-c2ccccc2)c1N	-32
O=C(CCl)Nc1cccc(Oc2cnccn2)c1	6
CCc1ccc(C(=O)CSc2nc3ccccc3c(=O)[nH]2)cc1	-18
CC(NC(=O)Nc1ccccc1Cl)c1ccc2c(c1)OCO2 (centres undefined)	-21
CC(=O)NC(=S)Nc1ccc(NC(=O)COc2ccc(Cl)cc2)cc1	-10
O=C1C2C3C=CC(C3)C2C(=O)N1CCC(=O)N1CCc2ccccc21 (centres undefined)	-19
Cc1ccc(C(=O)Nc2ccc3c(c2)ncn3C)cc1	-10
CC(C)C(=O)Nc1ccc2nn(-c3ccc(F)cc3)nc2c1	21
COC(=O)c1[nH]c2ccccc2c1NC(=O)C(C)N1CCOCC1 (centres undefined)	-2
COc1ccc(S(N)(=O)=O)cc1C(=O)NCC(C)(C)N1CCOCC1	-3

# Not a retest: an excerpt of the list.
Compound	OX1R antagonist
COCCCNc1nnc(Cc2ccc(Cl)cc2)c(=O)[nH]1	5
Cc1cc(C)nc(SCC(=O)N/N=C/c2cccn2-c2ccc(O)cc2)n1	-19
CC(C)Cc1csc(NC(=O)C(C)C)c1C(=O)O	0
COCCn1nc2cc(C(=O)NCc3cc(C(F)(F)F)cc(C(F)(F)F)c3)ccc2c1OC	-15
O=C1CC2(CCN(C(=O)COc3ccc(F)cc3)CC2)Oc2ccccc21	-12

# The list goes on:
structure	OX1R antagonist
Cc1ccccc1NC(=S)NCc1cccn1C	-21
Cn1c(N)c(C(=O)c2ccc(F)cc2F)c(=O)n(C)c1=O	-4
COc1cc(OC)cc(C(=O)Nc2ccc(S(=O)(=O)Nc3cc(C)nc(C)n3)cc2)c1	0
CC1CC1C(=O)NCCc1ccc(Cl)cc1 (centres undefined)	-5
CC(C)(C)SCCNC(=O)c1ccccc1	-20
COc1cc(C)c(NC(=S)Nc2cccc(Cl)c2C)cc1OC	-10
COC(=O)c1ccc(-n2c(C)cc(C(=O)COC(=O)CC3Sc4ccccc4NC3=O)c2C)cc1 (centres undefined)	-8
O=C(Cn1cnc2ccccc21)N/N=C/c1ccc([N+](=O)[O-])cc1	-15

# Next part:
structure	OX1R antagonist
Cc1cc(C)n2c3c(c(C#N)c2n1)CC(C)(C)OC3	-13
COc1ccc(N/N=C(/C#N)S(=O)(=O)C(C)(C)C)cc1	-9
COc1ccc(-n2c(C)c([N+](=O)[O-])c3ccc(O)c(CN4CCCCC4)c32)cc1	-33
O=C(c1cc2ncc(Br)cn2n1)N1CCOCC1	-8
CC(NC(=O)COC(=O)C1CCN(c2ccc(C(F)(F)F)cn2)CC1)c1ccc(Br)cc1 (centres undefined)	-47
O=c1c2cc(Cl)ccc2nc(-c2ccc([N+](=O)[O-])cc2)n1O	-2
COc1ccc(NC(=O)c2ccccc2SC)cc1OC	-10
O=C(NC(O)C(=O)c1ccc(F)cc1)c1ccc(F)cc1 (centres undefined)	15

# Later entries.
structure	OX1R antagonist
O=C(NNC(=O)c1ccccc1-c1ccccc1C(=O)O)c1cccc([N+](=O)[O-])c1	-8
Cc1cccc(NC(=S)Nc2ccccn2)c1	-17
Cc1cccc(OCC(=O)OCC(=O)N(CC(C)C)c2c(N)n(Cc3ccccc3)c(=O)[nH]c2=O)c1C	-26
Cc1ccc(-n2c(=O)c3c(n4cnnc24)-c2ccccc2CC32CCCCC2)cc1	-25
O=C(CSC1=NCCS1)Nc1ccc2ccccc2c1	-6
Cc1ccc2c(c1)COc1c3ccc(C(=O)NC(C)C)cc3nn1-2	-13
Cn1nc(-c2ccc(C(=O)N3CCN(Cc4ccccc4)CC3)cc2)c2ccccc2c1=O	-36
O=C(CSc1nnc(Nc2ccccc2)s1)NCc1ccco1	-22

# 4 entries from above, with each value named.
> Cc1cccc(OCC(=O)OCC(=O)N(CC(C)C)c2c(N)n(Cc3ccccc3)c(=O)[nH]c2=O)c1C
  OX1R antagonist = -26
> Cc1ccc(-n2c(=O)c3c(n4cnnc24)-c2ccccc2CC32CCCCC2)cc1
  OX1R antagonist = -25
> O=C(CSC1=NCCS1)Nc1ccc2ccccc2c1
  OX1R antagonist = -6
> Cc1ccc2c(c1)COc1c3ccc(C(=O)NC(C)C)cc3nn1-2
  OX1R antagonist = -13

# (list continues)
structure	OX1R antagonist
c1ccc2c(c1)Nc1cc3ccccc3cc1S2	15
COc1ccccc1/C=C1\SC(=S)N(NS(=O)(=O)c2ccc(C)cc2)C1=O	-8
O=C(NN1CCOCC1)c1cccc(F)c1	-18
O=C(N/C(=C\c1ccc(Br)cc1)C(=O)N1CCCC1)c1cccs1	-20
CCNC(=S)N(Cc1ccco1)Cc1cc2cc3c(cc2[nH]c1=O)OCCO3	-13
NS(=O)(=O)c1ccc(CCNC(=O)CCCC2=NS(=O)(=O)c3ccccc3N2)cc1	-10
O=c1oc2cccnc2n1CCS(=O)(=O)c1ccc(F)cc1	-17
CCc1nn(CCCC(=O)NCc2ccc(OC(C)C)cc2)c(=O)c2cc3occc3n12	-33

# Further results
structure	OX1R antagonist
O=C(CSc1nnnn1CCCO)Nc1ccc2c(c1)OCO2	10
Cc1nc(-c2ccc(S(=O)(=O)Nc3cccc(S(N)(=O)=O)c3)s2)cs1	-3
CCc1cccc(NC(=O)CCCn2c(=O)[nH]c3ccsc3c2=O)c1	-4
Cc1occc1C(=O)NNC(=O)C1CCCCC1	-7
O=C(Nc1c(-c2ccc(F)cc2)nc2ccccn12)c1ccc(F)cc1	-35
O=C(CSc1nnc(-c2ccncc2)n1CC1CCCO1)Nc1cccc(O)c1 (centres undefined)	-7
CCc1ccc(/C=N/NC(=O)c2cc(-c3ccccc3OC)nc3ccccc23)s1	-13
CC(C)N1CC(O)=C(c2nc3ccccc3c(=O)[nH]2)C1=N	-9

# Next section
structure	OX1R antagonist
C=C1SC(Nc2c(C)cccc2C)=NC12CCCCC2	-7
Cn1c(SCC(=O)c2ccccc2)nnc1-c1ccco1	-16
COc1ccccc1CN(Cc1cc2cc(C)ccc2[nH]c1=O)Cc1nnnn1CC1CCCO1 (centres undefined)	-14
Cc1onc(-c2c(F)cccc2Cl)c1C(=O)NCCCN1CCOCC1	-12
C[C@H]1C=C(C(=O)N2CCOCC2)O[C@@H](OCc2ccc(CO)cc2)C1	-11
Cc1nc2ccc(NC(=O)N3CCSCC3)cc2nc1C	-11
COc1cccc2c1OCC(CN1CCN(Cc3ccccc3F)C(CCO)C1)=C2 (centres undefined)	-10
COc1cccc(CN2CCN(Cc3nc(-c4cccs4)oc3C)CC2CCO)c1 (centres undefined)	-24

# Carrying on:
structure	OX1R antagonist
O=C(CSc1nnc2ccc(-c3ccccc3)nn12)NCC1CCCO1 (centres undefined)	9
CC(C)c1nnc(NC(=O)CCC(=O)NC2CCCCCCC2)s1	-20
Nc1nonc1-n1nnc(C(=O)N/N=C/c2cccc(Cl)c2)c1CN1CCCCCC1	-20
CCNC(=O)NC(=O)CSc1nc2ccccc2n1CCOC	-2
O=C(NCC(=O)N(c1cccnc1)C(C(=O)NC1CCCCC1)c1ccccc1)c1ccco1 (centres undefined)	0
Cc1nn(C(=O)c2cccnc2)c(C)c1Sc1ccc(Br)cc1	0
Cc1cc(C(=O)CCl)c(C)n1CCc1ccc(Cl)cc1	-16
CCOC(=O)/C=C1\NC2(CCCCC2)Cc2cc(OC)c(OC)cc21	-28

# The listing continues.
structure	OX1R antagonist
O=C(NNC(=O)C1C2CCCCC21)c1coc(=O)c(Br)c1 (centres undefined)	-9
CCOC(=O)C1(CCCc2ccccc2)CCN(C(=O)c2cnc(C)cn2)CC1	-23
O=C(NC(=S)Nc1ccc2c(c1)OCCO2)c1ccccc1	-13
CSCC[C@H](NC(=O)[C@@H]1Cc2ccccc2CN1)C(=O)Nc1cccc(C)c1	-15
O=C(Oc1ccnc2cc(Cl)ccc12)N1CCCCCC1	-14
